VDR inhibitor: vitamin D3 receptor (human) inhibition; Potency, µM, for the others: max response, negative = inhibition, most hits filed as inhibitors; P11473; AID 504847; hit rate 0.93% among 400,000; VDR-SRC2-3 peptide fluorescence polarization, 2 h; active means well fitted inhibition curve with a large enough effect; inconclusive means small, poorly fitted or top-dose-only effect, or another doubt; inactive means no such curve, though single readings can be large or run the other way; further: series mostly up to about 120 µM
Target sequence (P11473 whole entry, looked up): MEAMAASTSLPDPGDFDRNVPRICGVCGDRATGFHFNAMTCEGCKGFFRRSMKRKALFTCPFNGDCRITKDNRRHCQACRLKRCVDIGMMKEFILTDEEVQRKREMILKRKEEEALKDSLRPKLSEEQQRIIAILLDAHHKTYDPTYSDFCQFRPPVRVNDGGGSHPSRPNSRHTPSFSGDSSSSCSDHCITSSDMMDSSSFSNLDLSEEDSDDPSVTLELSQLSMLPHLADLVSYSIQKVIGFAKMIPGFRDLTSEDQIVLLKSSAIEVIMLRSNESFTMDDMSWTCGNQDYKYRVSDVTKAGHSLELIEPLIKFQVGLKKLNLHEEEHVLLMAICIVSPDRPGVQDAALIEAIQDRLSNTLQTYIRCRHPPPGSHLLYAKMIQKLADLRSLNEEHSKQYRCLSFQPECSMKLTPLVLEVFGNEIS
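Measured by FP: displacement of SRC2-3 coactivator peptide from VDR by library compounds, following a two-hour ambient incubation.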
Numbers without * were called inactive; ? = inconclusive; & = joins results of further samples. On the % scale 0 is the no-effect control and ±100 the full control effect; potency means the concentration at half of the fitted maximal effect. Not all compounds are listed; count on the stated rates, not on these rows.

Structure	VDR inhibitor
COc1ccccc1NC(=O)NCCCN1CCN(c2ccc(F)cc2)CC1	-12%
O=C(O)CC(NC(=O)C1c2ccccc2Oc2ccccc21)c1ccc(Cl)cc1 (stereo not drawn)	-15%
O=S(=O)(Nc1cccc(S(=O)(=O)N2CCCCCC2)c1)c1ccc(F)cc1F	7%
CC(CCN1CCC(CN2C(=O)C(=O)NC[C@@H]2Cc2ccccc2)CC1)c1ccccc1 (stereo partly drawn)	-15%
CC(C)(C)[C@H]1COC(=O)CCCC/C=C\C[C@H](CC(=O)N(CCO)Cc2ccccc2)C(=O)N1	21%
CCOCC(=O)OCC(=O)Nc1cc(OC)c([N+](=O)[O-])cc1C	6%
Cc1nn(-c2nc(-c3ccco3)cc(C(F)(F)F)n2)c(C)c1Cl	4%
CCOC(=O)N1CCN(C(=O)CN(Cc2ccc(Cl)cc2)S(C)(=O)=O)CC1	2%
COCCNc1nc2ccccc2nc1NS(=O)(=O)c1ccc(C)cc1C	5%
CC(C)(C)OC(=O)NCCCC1=CC2=CC(=O)C(C)(OC(=O)C3CCCC3)C(=O)C2=CO1 (stereo not drawn)	3%

Structure	VDR inhibitor
COc1ccccc1NC(=O)C(C)Nc1ccc(C)c(Cl)c1 (stereo not drawn)	-7%
O=C(OCC(=O)N1CCCC1)c1cc2c(cc1[N+](=O)[O-])OCCO2	-11%
COC(=O)c1ccc(S(=O)(=O)N2CCc3ccccc3C2)cc1	-8%
CS/C(=N\N(C)C(N)=O)c1ccccc1	-9%
CC1(NC(=O)CC(c2ccccc2)(c2ccccc2)c2ccccc2)CCN(Cc2ccc(-c3ccccc3)cc2)C1=O (stereo not drawn)	8%
COc1ccc(N2CCN(CCNC(=O)Nc3ccc(C)cc3Cl)CC2)cc1	10%
COc1ccc(CCNC(=O)COC(=O)c2ccccn2)cc1	-9%
NC(=O)Cc1ccc2c(c1)[nH]c1ccccc12	3%
COc1ccccc1C(=O)N/N=C(\C)c1cccnc1	0%
O=C(c1ccc(Cl)cc1)N1CCN(S(=O)(=O)/C=C/c2ccccc2)CC1	-25%

Structure	VDR inhibitor
Cc1ccc(-c2cc(C(=O)O)c3sc(N4CCCCC4)nc3n2)cc1	2%
Cc1ccc(S(=O)(=O)Cn2nnnc2C(c2ccccc2)N2CCN(c3ccccc3)CC2)cc1 (stereo not drawn)	1%
COc1ccc(CCNC(=O)C2CCN(S(=O)(=O)c3ccc(Cl)cc3)CC2)cc1OC	-10%
CCOC(=O)c1nn2c(C(F)(F)F)cc(-c3ccc(C)cc3)nc2c1Cl	-23%
CCOC(=O)N1CCN(C(=O)C2CC(c3ccc(F)cc3)=NO2)CC1 (stereo not drawn)	-8%
CCc1noc(C)c1C(=O)Nc1ccc(S(=O)(=O)N2CCC(C)CC2)cc1	13%
CCC1(OC(=O)CN(C)C)C(=O)OCc2c1cc1n(c2=O)Cc2cc3c(N)cccc3nc2-1 (stereo not drawn)	2%
CCOc1ccccc1CNS(=O)(=O)c1cc(-c2cc(C)no2)ccc1C	-17%
COc1nccnc1NS(=O)(=O)c1ccc(NS(=O)(=O)c2ccc(NC(C)=O)cc2)cc1	11%
O=C(NCCc1csc(-c2cccc(F)c2)n1)C(=O)Nc1cc(F)ccc1F	11%

Structure	VDR inhibitor
O=C(Cn1c(-c2ccccc2)noc1=O)NCc1ccccc1	0%
Cc1ccc2cccc(NC(=O)c3cccc4c(Br)cccc34)c2n1	4%
O=c1c2nccnc2[nH]c(=S)n1Cc1ccccc1	1%
O=C1c2cccnc2C(Nc2ccc(Cl)cc2)N1Cc1cccs1 (stereo not drawn)	-19%
Cc1ccc(S(=O)(=O)Nc2cc(C)c(O)c(Sc3n[nH]c(C)n3)c2)cc1	-22%
NNC(=O)c1ccncc1	5%&-5%
CC(C)(C)C(=O)NC(CC(=O)O)c1ccccc1 (stereo not drawn)	-8%
CCCC(=O)Nc1cc(-c2nc3ncccc3o2)ccc1Cl	1%
O=C(NCCSc1ncc(-c2ccc(F)cc2)[nH]1)c1ccco1	6%
O=C1C[C@@H]2c3c(cccc3CN1Cc1ccccc1Cl)C[C@@H](O)[C@H]2O	3%

Structure	VDR inhibitor
COC(=O)c1ccc(NC(=O)Nc2nnc(N(C)C3CCCCC3)s2)cc1	-6%
Cc1cc(C)c(/C=C(\C#N)S(=O)(=O)c2ccccc2)[nH]1	-9%
N#C/C(=C/c1cc(Cl)c(O)c(Cl)c1)C(=O)N1CCCCC1	-7%
O=C(Cn1nc(C(F)(F)F)c2c1CCCC2)Nc1ccc(Cl)cc1	5%
O=C(NNS(=O)(=O)c1ccc(F)cc1)c1cc2ccccc2cc1O	-10%
COc1ccc(C2=CC(c3ccco3)n3ncnc3N2)cc1 (stereo not drawn)	11%
COC(=O)C1C(=O)CC(C)(O)C(C(=O)OC)C1c1ccccc1F (stereo not drawn)	12%
COC(=O)C1(C)NC(c2ccc(O)cc2)C2C(=O)N(c3ccc4c(c3)OCCO4)C(=O)C21 (stereo not drawn)	14%
C=CCNC(=O)COc1cc(C)cc(C)c1C	-4%
CC(C)c1nnc(NC(=O)CCC(=O)N2CCN(C3c4ccccc4-c4ccccc43)CC2)s1	-33%

Structure	VDR inhibitor
CCOc1ccccc1CN(CCc1ccc2c(c1)OCO2)Cc1cccc(OC)c1OC	5%
COc1ccccc1OCC(=O)Nc1c2c(nn1-c1ccccc1)CS(=O)(=O)C2	-14%
COC(=O)c1ccccc1S(=O)(=O)N1CCC(c2nc3ccccc3o2)CC1	9%
O=C(NC12CC3CC(CC(C3)C1)C2)N1CCC(O)(c2ccc3c(c2)OCO3)CC1	5%
Cc1c(/C=N/O)c2ccccn2c1C(=O)c1ccc(F)cc1	2%
Cc1ccc(NS(=O)(=O)c2cccc(C(=O)NCCCn3ccnc3)c2)cc1	-6%
COc1ccc(C(=O)NCCN2C(=O)S/C(=C\c3cccnc3)C2=O)cc1[N+](=O)[O-]	-10%
N/C(=N\OC(=O)c1cccs1)c1cccc([N+](=O)[O-])c1	10%
CCOC(=O)Cc1ccc(NC(=O)N2CC(CC)Oc3ccccc32)cc1 (stereo not drawn)	14%
COc1cc2cc(CN(CCCN3CCOCC3)Cc3nnnn3Cc3ccccc3)c(=O)[nH]c2cc1OC	3%

Structure	VDR inhibitor
COc1cccc(CNC(=O)Cc2c(C(=O)O)[nH]c3ccccc23)c1	7%
CC(=O)Nc1cc(NC(=O)C2C3C=CC(C3)C2C(=O)O)ccc1Cl (stereo not drawn)	?
CC1(C)Cc2nc3sc(C(=O)NCCCO)c(N)c3cc2CS1	3%
CCOC(=O)c1ccccc1Nc1cc(C)nc2nc(-c3ccco3)nn12	-11%
Cc1ccc2c(c1)-c1onc(C(=O)N3CCN(c4cccc(C)c4C)CC3)c1CO2	-1%
C/C(=N/NC(=O)c1ccc(O)cc1)c1cccc([N+](=O)[O-])c1	6%
CC1CCCN(CCCNC(=O)C2CC(=O)N(c3ccc(F)c(Cl)c3)C2)C1 (stereo not drawn)	2%
Cc1cc(C)n(-c2nc(C)nc(NCc3ccccc3)n2)n1	-19%
CC(C)c1nc2oc3c(NCc4cccnc4)ncnc3c2c2c1CCC2	12%
C=CCNC(=S)NNC(=O)c1ccc(OCCC)cc1	1%

Structure	VDR inhibitor
CCN1CCN(C(=O)C2(NC(=O)Nc3cccc(F)c3)CCCCC2)CC1	1%
COc1ccccc1C1NC(=O)NC(C)=C1C(=O)OC1CCCC(C)C1 (stereo not drawn)	-13%
COc1ccc(-c2noc(CCCC(=O)Nc3cccnc3)n2)cc1OC	9%
CC(=O)OCC1OC(Nc2cccc(C)c2)C(OC(C)=O)C(OC(C)=O)C1OC(C)=O (stereo not drawn)	-6%
COCCCn1c(-c2cccc(Cl)c2)nc2c1c(=O)[nH]c(=O)n2Cc1ccccc1	5%
Cc1onc(-c2ccccc2Cl)c1C(=O)Nc1cccc2nsnc12	4%
COc1ccc(N2CCn3c2nc2c3c(=O)n(CCCc3ccccc3)c(=O)n2C)c(OC)c1	13%
COc1ccc(/C=C/C(=O)OCC(=O)NC2CCCC2)c(OC)c1	-20%
Clc1ccc(Cc2noc(Cc3ccccc3)n2)cc1Cl	16%
CCOC(=O)C1(Cc2ccccc2Cl)CCN(S(C)(=O)=O)CC1	-3%

Structure	VDR inhibitor
O=C(NCc1ccccn1)c1cc2ccccc2oc1=O	-8%
O=C(CCS(=O)(=O)Cc1ccc(Cl)cc1)NCCCN1CCOCC1	2%
COC(=O)c1ccc(OC(=O)/C=C/c2ccco2)cc1	-9%
Cc1ccc(Cl)cc1NC(=O)c1cc(-c2ccc3c(c2)OCCO3)on1	6%
Nc1c(C(=O)Nc2ccc(F)cc2)sc(=S)n1-c1ccccc1F	?
COc1ccc(/C=N/NC(=O)c2ccncc2)cc1COc1ccc(NC(C)=O)cc1	0%
CCc1noc(C)c1C(=O)N(CC)c1nc2c(C)cccc2s1	23%
CCOc1ccc(-c2cc3nc(C4CCN(C(=O)OC(C)(C)C)CC4)c(C(=O)Nc4cccc(C(F)(F)F)c4)cn3n2)cc1	-4%
Cc1cccc(CS(=O)(=O)Cc2ccc(C(=O)NCc3cccnc3)o2)c1	-11%
CCN(c1ccccc1)S(=O)(=O)c1ccc(NCC2COc3ccccc3O2)nc1 (stereo not drawn)	10%

Structure	VDR inhibitor
CC(Oc1ccc(Cl)cc1)c1ccnn1S(=O)(=O)c1ccc(Cl)cc1 (stereo not drawn)	2%
CCCOc1ccc(C(=O)NC(=S)NCc2cccnc2)cc1	-2%
COc1ccc(OC)c(NC(=O)c2cc(-c3cc(C)cc(C)c3O)n[nH]2)c1	-3%
O=C(O)C1CN(C(=O)c2ccccc2)c2cc(Cl)ccc2O1 (stereo not drawn)	12%
COc1ccccc1-c1cc(C(=O)O)c2c(=O)n(C)c(=O)n(Cc3ccccc3)c2n1	-20%
CC[n+]1ccc(C[n+]2ccccc2)c2ccccc21	-21%
Cc1ccc(C)c(-n2nnnc2SCC(=O)Nc2cccc(-c3nnc4n3CCCCC4)c2)c1	5%
O=C(NC1CCS(=O)(=O)C1)c1cccc(S(=O)(=O)N2CCCCC2)c1 (stereo not drawn)	2%
CCOc1ccc(S(=O)(=O)N2CCN(CC(O)COc3cccc([N+](=O)[O-])c3)CC2)cc1 (stereo not drawn)	-6%
COC(=O)c1ccc(Cl)cc1NC(=O)N(Cc1ccc(OC)cc1)C1CCN(C(C)=O)CC1	11%

Structure	VDR inhibitor
O=C(NCc1ccccc1)c1cnc2sc(N3CCCC3)nn2c1=O	7%
CC(C)Sc1n[nH]c(=O)n1-c1ccccc1	-15%
O=C(NC(=S)Nc1ccc2c(c1)OCCO2)c1cccc2ccccc12	10%
CC(C)CCNC(=O)NC(=O)COC(=O)C1=COCCO1	-11%
COc1ccc(Cl)cc1NC(=O)Cn1c(=O)n(Cc2nc(C)no2)c(=O)c2ccccc21	3%
COc1ccc(NC(C)c2ccccc2)cc1 (stereo not drawn)	-9%
CC1Cc2cc(S(=O)(=O)CCC(=O)Nc3ccc(Cl)cc3F)ccc2N1C(=O)C1CC1 (stereo not drawn)	-5%
Cc1ccc(NC(=O)C(=O)NCC2OCCc3ccccc32)cc1 (stereo not drawn)	-13%
CCCc1c(C)c2cc(C)ccc2[nH]c1=O	4%
CCOc1ccc(S(=O)(=O)Nc2nccs2)cc1	-17%

Structure	VDR inhibitor
Cc1ccc2[nH]c(=O)c(CN(CCCN3CCOCC3)C(=O)NC3CCCCC3)cc2c1	15%
COc1ccc(NC(=O)N(CCc2ccccc2)Cc2cc3c(C)cc(C)cc3[nH]c2=O)cc1	-4%
O=C(Nc1cccc(C(F)(F)F)c1)c1ccc2c(c1)nnn2C1CCCC1	13%
CCc1ccc2[nH]c(=O)c(CN(CCCN3CCOCC3)C(=O)Nc3ccc(Cl)cc3)cc2c1	11%
Cc1ccc(NCc2cccc(B(O)O)c2)cc1	-11%
Cn1c(=O)c2c(n3c4ccccc4nc13)NC(=O)CC2c1cccc(Cl)c1 (stereo not drawn)	3%
COc1cc2c(cc1OC)C(COc1ccc3c(C)cc(=O)oc3c1)N(C(=O)CC(C)C)CC2 (stereo not drawn)	?
CC1(C)Cc2c(cnn2-c2ccccc2)-c2c1c1ccccc1n2CC(O)CBr (stereo not drawn)	-2%
COCCn1c(=NC(=O)c2cccs2)sc2cc(NC(C)=O)ccc21	-15%
CCOC(=O)c1ccc(NC2Nc3cc(C)nn3S2)cc1 (stereo not drawn)	20%
Cc1cc(=O)n(Cc2ccccc2)c2c1c(C)nn2-c1ccccc1	-1%
